Assay outcomes as filed in PubChem.
Mtb growth: Mycobacterium tuberculosis H37Rv growth inhibition, cell based, confirmatory dose response (AID 1949) | most inactive calls were filed without a number and no value below 0 was filed | inhibition, % at 10 µg/mL, or IC50 in µg/mL where a hit was titrated | actives 1.6% (n = 100,000);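 active means confirmed in a dose series; inconclusive means about 50% or more but not retested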;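 further: bacteria grown 7 days with compound before Alamar blue readout; 0% = untreated bacteria and 100% = reference antibiotic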
Active calls of the source: *; i = inactive; ? = inconclusive. This is a subset (hit frequency here may not be typical).

| compound | Mtb growth |
| --- | --- |
| O=C(Nc1ccccc1C(=O)N1CCCC1)c1ccc(CN2CCc3ccccc3C2)cc1 | i |
| O=C(CSc1nc(-c2ccccc2)c(-c2ccccc2)o1)Nc1ccc(S(=O)(=O)Nc2ncccn2)cc1 | i |
| COc1ccc(N(CC(=O)Nc2ccc(C)cc2C)S(=O)(=O)c2ccc(F)cc2)cc1 | i |
| COc1c(C)cccc1C(=O)Nc1c(Cl)cccc1Cl | i |
| O=C1N/C(=N\c2ccccn2)SC1Cc1ccc(Br)cc1 (stereo unspecified) | i |
| O=C(NC1CC2CCC1C2)c1cccc(Cl)c1 (stereo unspecified) | i |
| Cc1nc2c(o1)NC(N)=C(C#N)C2C1CC=CCC1 (stereo unspecified) | i |
| CCNC(=O)CN(c1cccc(Cl)c1)S(=O)(=O)c1ccc(Cl)cc1 | i |

The final 4 records of the section before come first, to join the parts:
| compound | Mtb growth |
| --- | --- |
| O=C1N/C(=N\c2ccccn2)SC1Cc1ccc(Br)cc1 (stereo unspecified) | i |
| O=C(NC1CC2CCC1C2)c1cccc(Cl)c1 (stereo unspecified) | i |
| Cc1nc2c(o1)NC(N)=C(C#N)C2C1CC=CCC1 (stereo unspecified) | i |
| CCNC(=O)CN(c1cccc(Cl)c1)S(=O)(=O)c1ccc(Cl)cc1 | i |
| Cc1ccccc1N1C(=O)/C(=C/c2c(F)cccc2Cl)SC1=S | i |
| O=C(CN(C1CCCCC1)S(=O)(=O)c1ccc(Cl)cc1)NCc1ccc(Cl)cc1 | 5% |
| O=C(O)c1ccc(-c2nc3ccccc3s2)cc1 | i |
| CCOc1cc(C(=O)O)cc(I)c1OCC(=O)O | i |
| COc1ccc(Cc2nc3sc4c(c3c(=O)n2N)CCCC4)cc1 | i |
| O=C(Nc1ccc(Cl)c(C(F)(F)F)c1)c1ccccc1[N+](=O)[O-] | 2% |
| COC(=O)C1=C(C)Nc2ncnn2C1c1ccc(OCc2cccc(C)c2)c(OC)c1 (stereo unspecified) | i |
| COC(=O)C1=C(C)N=C2SCCC(=O)N2C1c1ccc(SC)cc1 (stereo unspecified) | i |

3 structures already listed, sorted by formula weight, low to high.
| compound | Mtb growth |
| --- | --- |
| COC(=O)C1=C(C)N=C2SCCC(=O)N2C1c1ccc(SC)cc1 (stereo unspecified) | i |
| Cc1ccccc1N1C(=O)/C(=C/c2c(F)cccc2Cl)SC1=S | i |
| CCOc1cc(C(=O)O)cc(I)c1OCC(=O)O | i |

Other compounds follow.
| compound | Mtb growth |
| --- | --- |
| COc1cc(C2C(C#N)=C(SCC(N)=O)NC(C)=C2C(=O)OC(C)C)cc(OC)c1OC (stereo unspecified) | i |
| CCN(CC)C(=O)c1sc(NC(=O)Nc2cccc(Cl)c2)c(C(=O)OC)c1C | i |
| Cc1c(Br)ccc(NC(=O)CSc2nnc(-c3ccc(Cl)cc3)n2C)c1C | i |
| CSc1ccccc1NC(=O)COc1ccc(Cl)cc1 | ? |
| Clc1ccccc1OCCCCN1CCNCC1 | i |
| COc1cc(NC(=O)Nc2cccc(C(F)(F)F)c2)cc(OC)c1 | i |
| COC(=O)CN1C(=O)C(O)(CC(=O)c2cccc(Br)c2)c2ccccc21 (stereo unspecified) | i |
| O=C(Nc1ccc(Cl)cc1Cl)c1ccccc1 | 2% |
| Cc1c(Br)cc(C(=O)OC2CCN(C)CC2)c(C)c1C | 2% |
| COC(=O)c1ccccc1NC(=O)Cn1c(SC)c(F)cnc1=O | i |
| Cc1ccc(OCC(=O)Nc2ccc(OC(C)C)cc2)c(C(C)(C)C)c1 | 0% |
| CC1(C)CC(O)CC(C)(C)N1CC(O)COc1ccccc1 (stereo unspecified) | i |
| COC(=O)c1ccc(C2c3c(oc4cc(C)c(C)cc4c3=O)C(=O)N2Cc2ccc(C)cc2)cc1 (stereo unspecified) | i |
| Cc1cc(C(=O)NCCc2ccc(Cl)cc2)cs1 | i |
| O=C(COc1ccc([N+](=O)[O-])cc1)Nc1cccc(F)c1 | ? |
| Oc1ccc(F)cc1C1=NNC(c2ccc(F)cc2)C1 (stereo unspecified) | i |
| CCCCSCCc1n[nH]c(=S)n1-c1ccccc1 | i |
| CCc1cccc(C)c1NC(=O)C(CC)CC | i |
| COC(=O)c1sccc1NC(=O)c1c(F)c(F)c(F)c(F)c1F | 0.21µg/mL* |
| CCOc1ccccc1C(=O)Nc1ccc(C)c([N+](=O)[O-])c1 | i |
| COc1ccc(CN2C(=O)c3oc4cc(C)c(C)cc4c(=O)c3C2c2ccc(Cl)cc2)cc1 (stereo unspecified) | i |
| CCC(Oc1ccccc1)C(=O)N1CCN(c2ccccc2OC)CC1 (stereo unspecified) | i |
| COC(=O)C1=C(C)NC2=C(C(=O)CC(c3cccs3)C2)C1c1ccc(C)o1 (stereo unspecified) | 2% |
| CC(=O)N1N=C(c2ccc(NS(C)(=O)=O)cc2)CC1c1c(F)cccc1Cl (stereo unspecified) | 0% |
| O=C1C2CCCCC2=NN1c1ccccc1 (stereo unspecified) | i |
| COC(=O)c1cccc(NS(=O)(=O)c2ccc(Br)s2)c1C | i |
| C=CCn1c(-c2cc3cccc(OC)c3o2)n[nH]c1=S | i |
| COc1ccc(OCC(=O)N(C)c2ccccc2)cc1 | i |
| CCOc1ccccc1N(CC(=O)Nc1cccc(N(C)S(C)(=O)=O)c1)S(=O)(=O)c1ccc(Cl)cc1 | i |
| COc1ccccc1CNC(=O)c1cc(OC)c(OC)c(OC)c1 | i |
| COc1ccc(OCCC(=O)N2CCN(C)CC2)cc1 | i |
| O=C(c1cccc(S(=O)(=O)N2CCCCC2)c1)N1CCN(c2cccc(Cl)c2)CC1 | 5% |
| O=C(Cc1cccs1)Nc1nnc(C2CC2)s1 | i |
| CCOC(=O)C(Oc1ccc2c(-c3ccc(OC)cc3)cc(=O)oc2c1)c1ccccc1 (stereo unspecified) | i |
| Cc1ccnc(Nc2nc3ccccc3s2)n1 | i |
| O=C(NC(=S)Nc1cccc2ncccc12)c1cccs1 | i |
| COC(=O)c1ccc(NC(=O)c2ccccc2-c2ccccc2C(=O)O)cc1 | 47% |
| COc1ccc(NC(=O)CN2C(=O)c3ccccc3S2(=O)=O)cc1Cl | i |
| CC(=O)c1cccc(NC(=O)CN(c2cc(C)ccc2C)S(=O)(=O)c2ccccc2)c1 | i |
| O=C(Nc1ccc(S(=O)(=O)Nc2ccc(Cl)cc2Cl)cc1)c1ccco1 | i |
| O=C(CCSc1ccccc1)N1CCN(c2ccccc2)CC1 | 0% |
| CCCn1cnc2scc(-c3ccc(C)cc3)c2c1=O | i |
| CS(=O)(=O)N(CC(=O)Nc1ccc2c(c1)OCCO2)c1ccc(I)cc1 | i |
| NC(=O)c1cc(-c2ccccc2)sc1NC(=O)CSc1ncnc2sc3c(c12)CCCC3 | 3% |
| CC(=O)Oc1ccc(C(=O)NCc2ccc(F)cc2)cc1 | 3% |
| COc1ccc(C(N)CC(=O)O)c2ccccc12 (stereo unspecified) | i |
| CCn1ncc(Br)c1C(=O)Nc1ccc(C(C)C)cc1 | 2% |
| CC(=O)N(c1ccc(Cl)cc1)c1cn(C(C)=O)c2ccccc12 | 2% |

(more compounds)
mol	Mtb growth
O=C1CN(c2ccccc2)C(=O)C1C(=O)Nc1ccccc1 (stereo unspecified)	i
CCOc1ccccc1CNc1sc2c(c1C(=O)Nc1ccccc1OCC)CCC2	i
O=C(Nc1ccc2c(c1)OCO2)C1CCCN1C(=O)OCc1ccccc1 (stereo unspecified)	i
Cc1c(Cc2ccccc2)c(=O)oc2cc(OCC(=O)NCc3ccc4c(c3)OCO4)ccc12	i
CCn1c(CNC(=O)c2ccc(C)cc2)nnc1SCC(=O)Nc1ccc(Br)cc1C(C)C	3%
O=C(NC(=S)Nc1ccccc1N1CCCC1)c1cc(I)ccc1Cl	7%
O=[N+]([O-])c1ccc(N2CCOCC2)cc1	i
O=C(C1=C(O)C(=O)N(CCN2CCOCC2)C1c1cccnc1)c1cccs1 (stereo unspecified)	i
CC(=O)Oc1ccc2c(=O)c(Oc3ccccc3)c(C)oc2c1C	i
CSc1ccccc1NC(=O)Nc1cccc(Cl)c1Cl	0%
Cc1cc(=O)oc2cc(OCC(=O)N3CCOCC3)ccc12	i
CCOCC(=O)Nc1nc2ccc(OCC)cc2s1	?
CC(C)NC(=O)c1ccccc1NS(=O)(=O)c1cc(Cl)ccc1Cl	i
Cc1cc2oc(C(=O)Nc3ccc(S(=O)(=O)N(C)Cc4ccccc4)cc3)c(C)c2cc1C	i
Cc1ccc(OCC(=O)N2CCN(c3ccc(F)cc3)CC2)c(Br)c1	i
Cc1cc(Br)ccc1OCC(=O)Nc1ccc(F)c(Cl)c1	40%
COC(=O)C1=CN(C2CCCCC2)C=C(C(=O)OC)C1c1ccccc1OCc1ccccc1	16%
S=C(Nc1ccn(Cc2ccc(Br)cc2)n1)Nc1cc(Cl)ccc1Cl	i
COc1ccc(NC(=S)Nc2ccc(C)cc2)cc1OC	i
O=C1c2ccc(-c3nc4ccc(Br)cc4c(=O)o3)cc2C(=O)N1Cc1cccnc1	i
COc1ccc(I)cc1S(=O)(=O)NCCN1CCOCC1	i
CC(=O)Nn1cc2c(c1-c1ccccc1)c(=O)n(C)c(=O)n2C	i
CCOC(=O)c1c(NC(=O)c2ccc3c(c2)OCCO3)sc(C(=O)OC)c1C	i
CCCNC(=O)c1ccccc1NS(=O)(=O)c1ccc(OC)c(OC)c1	i
Cc1ccc(S(=O)(=O)N2CCN(c3ccc(F)cc3)CC2)cc1C	0%
O=C(c1ccccc1-c1ccccc1)N1CCN(c2ccc(F)cc2)CC1	6%
Cc1ccc(C(C)(C)C)c(OCCN2CCOCC2)c1	i
COc1ccc(-c2csc(N3CCN(Cc4ccc5c(c4)OCO5)CC3)n2)cc1	i
O=C(c1cccs1)N1CCN(c2ccnc3cc(Cl)ccc23)CC1	i
CC(C)OCCCNC(=S)N1CCN(C(c2ccccc2)c2ccccc2)CC1	i
O=C(Nc1sc(-c2ccccc2)cc1C(=O)O)c1ccccc1	?
COc1cc(Cl)c(C)cc1NS(=O)(=O)c1ccc(C)cc1	i
CCc1[nH]nc2c1C1(CN3CCC1CC3)C(C#N)=C(N)O2 (stereo unspecified)	i
Cc1ccc(NC(=O)COc2ccc(-c3ccccc3)cc2)c(C)c1	2%
N#Cc1c(NC(=O)c2cccc(OCc3ccccc3)c2)sc2c1CCC2	i
O=C(COc1ccc(S(=O)(=O)NC2CCCCC2)cc1)NCc1ccco1	i
Cc1cc(C)nc(/N=C(\NC(=O)C(F)(F)F)Nc2ccccc2)n1	i
Cc1c(C)n(C(=O)CN2CCN(c3ccccn3)CC2)c2ccccc12	i
COc1cc(-c2ccc(NC(=O)c3ccccc3F)c(OC)c2)ccc1NC(=O)c1ccccc1F	i
CCOC(=O)c1c(-c2ccccc2)csc1NC(=O)c1cncc(Br)c1	i
O=C(CCSc1nc2ccccc2o1)Nc1ccccc1	i
COc1ccc(CNCCc2c[nH]c3ccccc23)cc1Br	11%
CCC(C)Oc1ccc(C(=O)NC(=S)Nc2ccc(N3CCOCC3)cc2)cc1 (stereo unspecified)	1.2µg/mL*
CCC(CO)NC(=O)C(=O)Nc1cccc(OC)c1 (stereo unspecified)	i
Cc1ccc(/C=C/C(=O)O)cc1S(=O)(=O)NCc1ccc2c(c1)OCO2	i

An excerpt of these results, with each value named:
CCOC(=O)c1c(-c2ccccc2)csc1NC(=O)c1cncc(Br)c1
  Mtb growth: i

Cc1ccc(NC(=O)COc2ccc(-c3ccccc3)cc2)c(C)c1
  Mtb growth: 2%

CCc1[nH]nc2c1C1(CN3CCC1CC3)C(C#N)=C(N)O2 (stereo unspecified)
  Mtb growth: i

CCC(CO)NC(=O)C(=O)Nc1cccc(OC)c1 (stereo unspecified)
  Mtb growth: i

Next section.
mol	Mtb growth
CCCCSc1nnc2n(N)c(=O)c3ccccc3n12	i
COC(=O)c1sc(N2C(=O)c3oc4ccccc4c(=O)c3C2c2cccs2)nc1C (stereo unspecified)	i
COc1ccc(C(=O)O)cc1NC(=S)NC(=O)c1ccccc1I	5%
O=C(Cn1cc(C(=O)c2cccs2)c2ccccc21)NC1CCCCC1	i
COC(=O)C1CC(=O)N(c2ccc(C)c(C)c2)C1 (stereo unspecified)	i
Cc1ccc(F)cc1NC(=O)CSc1nnc(COc2ccccc2Cl)o1	i
CC(C)C(=O)N1CCN(c2ccc(NC(=S)NC(=O)c3ccccc3I)cc2)CC1	4%
CC(C)Cn1c2ccccc2c2cc(C(=O)O)ccc21	6%
Clc1ccc(N2CCN(N=Cc3cccc(Oc4ccccc4)c3)CC2)cc1	i
CN(C)CCNc1oc(-c2ccccc2F)nc1C#N	i
Cc1c(NC(=S)Nc2ccc(S(=O)(=O)Nc3nccs3)cc2)c(=O)n(-c2ccccc2)n1C	i
CCOC(=O)C1=C(c2ccccc2)NC(=O)NC1c1ccc(O)c(Cl)c1 (stereo unspecified)	i
COc1cc(C=O)ccc1OCCOc1ccc(F)cc1	i
O=C(CSc1nnc(CCc2ccccc2)n1-c1ccc(Cl)cc1)N1CCCC1	i
COc1cccc2cc(-c3nnc(Nc4ccccc4I)s3)c(=O)oc12	i
CC(NC(=O)c1ccccc1[N+](=O)[O-])C1CC2CCC1C2 (stereo unspecified)	i
COc1ccc(CCN2C(=O)C(NC(=O)C(C)(C)C)(C(F)(F)F)C3=C2CC(C)(C)CC3=O)cc1OC (stereo unspecified)	i
COc1ccc(Cl)cc1NC(=O)c1cccc(NC(=O)C(C)C)c1	6%
Nc1ccccc1C(O)(c1ccccc1)c1ccccc1	0%
O=C(C1=C(O)C(=O)N(CC2CCCO2)C1c1cccc(Br)c1)c1ccco1 (stereo unspecified)	i
COc1ccc(-c2cc(C(F)F)n3ncc(C(=O)Nc4ccc(C(C)=O)cc4)c3n2)cc1	i
Cc1nc(SCC(=O)Nc2ccccc2)n[nH]1	i
COc1cc(C2c3c(oc4ccc(Cl)cc4c3=O)C(=O)N2Cc2ccc(C)cc2)ccc1O (stereo unspecified)	i
N#C/C(=C/c1ccccc1)c1ccc(C#N)cc1	i
O=CN1CCN(C2CC(=O)N(c3ccc4c(c3)OCO4)C2=O)CC1 (stereo unspecified)	i
O=C(COc1ccc(S(=O)(=O)NCCc2ccccc2)cc1)Nc1ccc(Br)cc1	i
